Compound activity: PubChem, Broad Institute
Ecoli rRNA inh – selective bacterial rRNA inhibition in E. coli | E. coli WT GFP vs humanized-ribosome RFP mutants, fluorescence, 24 h; active compounds read low; DMSO median 0, no signal -100 | GFP signal change (wild-type ribosome), % (no concentration beside the values) | 350,000 tested, 1.6% active | AID 720706;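 active = significant combined selectivity score with lowered wild-type GFP, culture density cut under 30%, mutant RFP and density less affected; inactive = any of these conditions unmet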; also: one replicate is shown; some compounds called inactive have numbers as strong as hits
Ecoli rRNA inh OD600 – also measured in Ecoli rRNA inh; calls as there; OD600 change, %; measured here: OD600 growth;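 optical density of the mix in the first replicate; 0 = DMSO median and -100 = no signal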
Ecoli rRNA inh RFP – recorded beside Ecoli rRNA inh, whose call it bears; RFP signal change, %; measured here: RFP humanized mutant strains;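 first replicate; 0 = DMSO median and -100 = no signal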
* = called active by the depositor.

SMILES	Ecoli rRNA inh	Ecoli rRNA inh OD600	Ecoli rRNA inh RFP
CCNC(=O)Nc1ccc2c(c1)C(=O)N(C)[C@H]1CC[C@H](CC(=O)NCCOC)O[C@H]1CO2	4	3	-0.5
COc1ccc(-c2ccc([C@@H]3[C@H](CO)N4C(=O)CNC[C@@H]34)cc2)cc1	-3	0	1.9
CN(C)C(=O)c1ccc(-c2ccc([C@@H]3[C@@H](C#N)N(C(=O)C4CC4)[C@H]3CO)cc2)cc1	1	-5	-0.7
CCN=C1NC(c2ccc(F)cc2)C(C(=O)OC)=C(C)N1Cc1cccc(C(F)(F)F)c1 (stereo unspecified)	-45	-70	-18
CO[C@@H]1CN(C)C(=O)c2cc(NS(=O)(=O)c3ccc(C)cc3)ccc2OC[C@H](C)N(C)C[C@@H]1C	1	2	-0.2
C[C@H]1CN([C@@H](C)CO)S(=O)(=O)c2ccc(-c3ccncc3)cc2O[C@@H]1CN(C)C(=O)c1cccc(F)c1	-1	-2	0.1
Cc1noc(C)c1NC(=O)N(C)C[C@H]1Oc2ccc(NC(=O)Nc3ccc(F)cc3)cc2CC(=O)N([C@@H](C)CO)C[C@@H]1C	0	1	-0.3
COCC(=O)N1CC2(CCN(Cc3ccccc3Cl)CC2)c2c([nH]c3cc(OC)ccc23)[C@H]1CO	-4	-2	1.1
O=C(Nc1ccc(F)cc1)N1CC(=O)N2[C@@H](CO)[C@H](c3ccc(C#Cc4ccc(F)cc4)cc3)[C@@H]2C1	-16	-41	28
COc1ccccc1-c1ccc([C@@H]2[C@@H](CO)N(C(=O)C3CCC3)[C@H]2C#N)cc1	1	1	2.2
CNC[C@H]1OCCCC[C@@H](C)Oc2ccc(NS(=O)(=O)c3ccc(OC)cc3)cc2C(=O)N([C@@H](C)CO)C[C@H]1C	3	0	-5.4
CCC(=O)N(C)C[C@@H]1Oc2cc(C#CC(C)C)ccc2S(=O)(=O)N([C@@H](C)CO)C[C@@H]1C	-2	7	1.5
C[C@@H]1CCCCO[C@@H](CN(C)S(C)(=O)=O)[C@H](C)CN([C@@H](C)CO)C(=O)c2cc(NC(=O)c3ccncc3)ccc2O1	1	4	-2.5
COCC(=O)N(C)C[C@H]1Oc2cc(-c3ccc(OC)cc3)ccc2S(=O)(=O)N([C@H](C)CO)C[C@@H]1C	-6	-10	-3.4
C[C@H](CO)N1C[C@H](C)[C@@H](CN(C)C)Oc2ncc(C#CC3CC3)cc2C1=O	12	13	-3.3

Profiles, looked up by structure. Screens in order: Ecoli rRNA inh	Ecoli rRNA inh OD600	Ecoli rRNA inh RFP
`C[C@H]1CN([C@@H](C)CO)S(=O)(=O)c2ccc(-c3ccncc3)cc2O[C@@H]1CN(C)C(=O)c1cccc(F)c1` is entered as -1	-2	0.1
`CO[C@@H]1CN(C)C(=O)c2cc(NS(=O)(=O)c3ccc(C)cc3)ccc2OC[C@H](C)N(C)C[C@@H]1C` is entered as 1	2	-0.2
`C[C@@H]1CCCCO[C@@H](CN(C)S(C)(=O)=O)[C@H](C)CN([C@@H](C)CO)C(=O)c2cc(NC(=O)c3ccncc3)ccc2O1` is entered as 1	4	-2.5
`Cc1noc(C)c1NC(=O)N(C)C[C@H]1Oc2ccc(NC(=O)Nc3ccc(F)cc3)cc2CC(=O)N([C@@H](C)CO)C[C@@H]1C` is entered as 0	1	-0.3
`COc1ccc(-c2ccc([C@@H]3[C@H](CO)N4C(=O)CNC[C@@H]34)cc2)cc1` is entered as -3	0	1.9

Other records follow:
SMILES	Ecoli rRNA inh	Ecoli rRNA inh OD600	Ecoli rRNA inh RFP
C[C@@H]1CN([C@H](C)CO)C(=O)c2cccc(NS(=O)(=O)c3cn(C)cn3)c2O[C@@H]1CN(C)CC1CCCCC1	8	12	-1.6
C[C@@H]1CN([C@@H](C)CO)S(=O)(=O)c2ccc(C3=CCCCC3)cc2O[C@H]1CN(C)C(=O)C1CC1	-9	-19	0.0
COC(=O)CC1OCC=C2CN3CCC45C6=CC(=O)C(=O)C([N+](=O)[O-])=C6NC4C1C2CC35 (stereo unspecified)	2	13	3.9
C/C=C/c1cnc2c(c1)C(=O)N([C@@H](C)CO)C[C@H](C)[C@H](CN(C)S(=O)(=O)c1ccc(C)cc1)O2	2	4	-1.2
C[C@@H]1CN([C@@H](C)CO)C(=O)c2cc(NC(=O)Nc3ccc(F)cc3)ccc2O[C@@H]1CN(C)S(=O)(=O)c1ccc(Cl)cc1	2	-2	10
C[C@@H]1CN([C@@H](C)CO)C(=O)c2cc(NC(=O)CCCN(C)C)ccc2O[C@@H](C)CCCCO[C@@H]1CN(C)Cc1ccncc1	1	3	-1.7
COc1ccc(CN(C)C[C@@H]2OCCCC[C@H](C)Oc3ccc(NS(=O)(=O)c4ccccc4)cc3C(=O)N([C@@H](C)CO)C[C@@H]2C)cc1	0	-3	1.4
C[C@@H]1CN([C@H](C)CO)C(=O)c2cc(NC(=O)Nc3ccc(C(F)(F)F)cc3)ccc2O[C@@H]1CN(C)Cc1ccncc1	-12	-65	18
C[C@@H]1CN([C@H](C)CO)C(=O)Cc2cc(NS(=O)(=O)c3cccs3)ccc2O[C@H]1CN(C)CC1CCCCC1	-3	-2	2.8
O=C(Nc1ccc(F)cc1)N1C[C@H]2[C@@H](c3ccccc31)[C@H](CO)N2C(=O)Cc1cccnc1	1	4	0.3
CN1C(=O)c2cc(NC(=O)c3ccc(F)cc3)ccc2OC[C@H]2O[C@H](CC(=O)NCC3CCCCC3)CC[C@@H]21	-4	-5	5.0
O=C(NCCN1CCNC1=O)c1ccc2sc([C@H]3C[C@H](O)[C@@H](CO)O3)nc2c1	11	21	-1.6
CCCCCCCCN1C(=O)[C@H](CC(=O)NCCC(C)C)C[C@@]2(C(=O)OC)CCCCC=C12	10	3	2.4
CCC(=O)Nc1ccc2c(c1)OC[C@@H](C)N(Cc1ccccc1)C[C@H](C)[C@@H](OC)CN(C)C2=O	-6	-4	0.8
O=C(CS(=O)(=O)c1ccccc1)CS(=O)(=O)c1ccccc1	-2	9	3.1
COc1ccc(NC(=O)Nc2cccc3c2O[C@H](CN(C)Cc2ccc(-c4ccccc4)cc2)[C@H](C)CN([C@H](C)CO)C3=O)cc1	-2	-6	8.4
C[C@@H]1CN([C@@H](C)CO)C(=O)c2cc(NC(=O)c3ccccc3)ccc2O[C@@H](C)CCCCO[C@H]1CN(C)S(=O)(=O)c1cn(C)cn1	-2	-3	-4.9
COCCN1C[C@@H](CO)O[C@@H](n2cnc3c(NC4CC4)ncnc32)C1	11	12	6.5
COc1ccc2ccccc2c1C=NN1CCCCC1	-1	-2	4.4
C[C@@H]1CN([C@H](C)CO)C(=O)c2cc(NS(=O)(=O)c3cccs3)ccc2O[C@@H](C)CCCCO[C@@H]1CN(C)C(=O)Cc1ccccc1	-2	-9	0.3
O=C(c1ccc(F)cc1)N1C[C@H]2[C@@H](c3ccccc31)[C@@H](CO)N2C(=O)c1ccc(F)cc1	3	7	-2.6
COc1cccc(C(=O)N2CCC[C@H]2C(=O)N2CCC[C@H]2C(=O)N[C@@H](C)c2ccccc2)c1	16	12	-0.1
O=C1C[C@@H](c2ccccc2)C(=O)N[C@@H](c2ccccc2)C/C=C\C[C@@H](c2ccccc2)N1	-3	-32	-8.2
Cc1cccc(Cn2c(NC3CCCC3)nc3c2c(=O)[nH]c(=O)n3C)c1	-1	-5	-2.0
C/C=C/c1ccc([C@H]2[C@@H](CO)N(Cc3cccc(F)c3)C23CN(C(=O)CC)C3)cc1	-4	-14	14
CCCN1[C@@H]2c3ccc(-c4ccccc4F)c(=O)n3C[C@@H]2[C@@H](CO)[C@@H]1C(=O)N1CCN(C)CC1	0	-2	-0.1
Cc1noc(C)c1NC(=O)N(C)C[C@H]1Oc2ccc(NC(=O)Nc3ccc(C(F)(F)F)cc3)cc2C(=O)N([C@H](C)CO)C[C@H]1C	-3	-4	-2.3
CC(=O)N1[C@H](CO)[C@@H](c2ccccc2)[C@@H]1CN(C(=O)c1ccc(F)cc1)C(C)C	-1	2	-1.6
COc1cc(F)ccc1-c1csc(C(O)(c2ccccc2)C(F)(F)F)n1 (stereo unspecified)	-22	-27	-7.1
CCNC(=O)C[C@@H]1CC[C@H](NS(=O)(=O)c2ccc(F)cc2)[C@@H](CO)O1	1	3	0.8
C[C@H](CO)N1C[C@H](C)[C@@H](CN(C)CC2CC2)OCCCC[C@H](C)Oc2ccc(NC(=O)NC3CCCCC3)cc2C1=O	7	13	0.8
C/C=C/c1ccc2c(c1)O[C@@H](CN(C)CC1CCOCC1)[C@@H](C)CN([C@H](C)CO)S2(=O)=O	-1	12	2.1
COc1ccc([C@H]2C[C@H](n3cc(COC(=O)c4ccccc4)nn3)[C@@H](O)CN2CC2CCCCC2)cc1	0	-4	-1.2
C[C@H](CO)N1C[C@H](C)[C@@H](CN(C)Cc2ccc3c(c2)OCO3)Oc2c(NC(=O)c3ccc(-c4nccs4)cc3)cccc2C1=O	-4	8	2.1
CN(C)CC(=O)Nc1ccc2c(c1)[C@@H]1C[C@@H](CC(=O)NCc3ccncc3)O[C@@H](CO)[C@@H]1O2	4	5	-0.7
C[C@@H]1CN([C@@H](C)CO)C(=O)c2cccc(NS(C)(=O)=O)c2O[C@H]1CN(C)C(=O)Nc1cccc2ccccc12	-5	1	1.9
Cc1cccc(C)c1-n1nnnc1C(C1CC1)N1CCN(C/C=C/c2ccccc2)CC1 (stereo unspecified)	-29	-72	-10
CCC(=O)Nc1ccc2c(c1)C(=O)N(C)C[C@@H](OC)[C@H](C)CN(C(=O)C1CC1)[C@@H](C)CO2	2	7	-2.8
O=C(C[C@H]1C=C[C@H](NS(=O)(=O)c2ccc(F)cc2)[C@H](CO)O1)NC1CCCCC1	-1	4	-2.2
CC(=O)N(C)C[C@H]1Oc2ncc(C#Cc3ccncc3)cc2C(=O)N([C@@H](C)CO)C[C@H]1C	7	4	-2.4
CCCCN1C[C@H](CSC)[C@@H](CC(=O)Nc2ccc(OC)cc2)C1=O	-7	-3	-1.7
O=C(C[C@H]1C=C[C@@H](NC(=O)Nc2ccccc2)[C@H](CO)O1)NCc1cccc(F)c1	0	1	-1.4
CNC(=O)C[C@H]1CC[C@H]2[C@H](COc3ccc(NC(=O)c4cccs4)cc3C(=O)N2C)O1	0	3	0.2
CC(=O)N1[C@@H]2Cn3c(ccc(C4=CCCCC4)c3=O)[C@H]1[C@@H](C(=O)NC1CCC1)[C@@H]2CO	1	-4	-1.7
C[C@H]1CCCCO[C@@H](CN(C)C(=O)Nc2ccc(C(F)(F)F)cc2)[C@@H](C)CN([C@@H](C)CO)C(=O)c2cc(NC(=O)Nc3ccccc3)ccc2O1	0	8	-3.8
C[C@H](CO)N1C[C@H](C)[C@H](CN(C)CC2CC2)Oc2cc(-c3ccc(F)cc3)ccc2S1(=O)=O	-1	-5	-0.9
C[C@@H]1CN([C@H](C)CO)C(=O)c2cccc(NC(=O)NC3CCCCC3)c2O[C@@H]1CN(C)S(=O)(=O)c1ccccc1	-1	-5	-4.3
COc1ccc(C(C#N)=C2C=CC(=NO)c3ccccc32)cc1	-2	-2	1.7
O=C(O)Cn1nnc(-c2ccccc2)c1COc1ccccc1	14	26	-4.8
CO[C@@H]1CN(C)C(=O)c2cc(NC(=O)c3nc4ccccc4s3)ccc2OC[C@@H](C)NC[C@H]1C	-2	0	-1.6
C[C@@H]1CN([C@@H](C)CO)S(=O)(=O)c2ccc(C#CC3CC3)cc2O[C@@H]1CN(C)CC1CC1	3	7	-2.1
C[C@@H]1CN([C@@H](C)CO)C(=O)Cc2cc(NS(=O)(=O)c3cn(C)cn3)ccc2O[C@H]1CN(C)C	1	-1	-2.9
CCCNC(=O)C[C@H]1C[C@H]2c3cc(NC(=O)Nc4ccccc4F)ccc3O[C@H]2[C@@H](CO)O1	-1	-6	-1.1
C[C@@H]1CN([C@@H](C)CO)C(=O)c2cc(C#CC3CC3)cnc2O[C@@H]1CN(C)C(=O)c1ccccc1	2	17	-1.2
CC(=O)N(C)C[C@@H]1Oc2ncc(C#Cc3cccnc3)cc2C(=O)N([C@@H](C)CO)C[C@H]1C	4	9	-0.8
C[C@H]1CN([C@@H](C)CO)S(=O)(=O)c2ccc(-c3cncnc3)cc2O[C@H]1CN(C)C(=O)C1CCC1	5	12	2.0
Cc1noc(C)c1NC(=O)N(C)C[C@@H]1Oc2ccc(NC(=O)CCCCCC(=O)Nc3ccccc3N)cc2C(=O)N([C@H](C)CO)C[C@@H]1C	0	10	2.1
COc1cccc(S(=O)(=O)Nc2ccc3c(c2)[C@@H]2C[C@@H](CC(=O)N[C@@H](C)c4ccccc4)O[C@H](CO)[C@@H]2O3)c1	0	-12	39
C[C@@H]1CN([C@@H](C)CO)C(=O)Cc2cc(NC(=O)NC3CCCCC3)ccc2O[C@@H]1CN(C)C(=O)Nc1ccc(F)cc1	-4	-5	-2.0
C[C@H](CO)N1C[C@H](C)[C@H](CN(C)CC2CC2)Oc2cc(C#C[C@@H](C)O)ccc2S1(=O)=O	5	6	-3.9
COc1ccccc1C(=O)Nc1ccc2c(c1)C(=O)N(C)C[C@H](OC)[C@H](C)CN[C@@H](C)CO2	-5	-3	-1.4

6 compounds out of the list above, sorted by their value in Ecoli rRNA inh OD600, falling:
SMILES	Ecoli rRNA inh	Ecoli rRNA inh OD600	Ecoli rRNA inh RFP
C[C@@H]1CN([C@@H](C)CO)C(=O)c2cc(C#CC3CC3)cnc2O[C@@H]1CN(C)C(=O)c1ccccc1	2	17	-1.2
Cc1noc(C)c1NC(=O)N(C)C[C@@H]1Oc2ccc(NC(=O)CCCCCC(=O)Nc3ccccc3N)cc2C(=O)N([C@H](C)CO)C[C@@H]1C	0	10	2.1
COc1ccc(C(C#N)=C2C=CC(=NO)c3ccccc32)cc1	-2	-2	1.7
COc1ccccc1C(=O)Nc1ccc2c(c1)C(=O)N(C)C[C@H](OC)[C@H](C)CN[C@@H](C)CO2	-5	-3	-1.4
C[C@H](CO)N1C[C@H](C)[C@H](CN(C)CC2CC2)Oc2cc(-c3ccc(F)cc3)ccc2S1(=O)=O	-1	-5	-0.9
COc1cccc(S(=O)(=O)Nc2ccc3c(c2)[C@@H]2C[C@@H](CC(=O)N[C@@H](C)c4ccccc4)O[C@H](CO)[C@@H]2O3)c1	0	-12	39

An excerpt. The share of hits here may be higher or lower than overall.
